# Source: PubChem BioAssay
# LANA-nucl inh = LANA-nucleosome interaction inhibition; z-score (no concentration beside the values); actives 0.3% (n = 51,000); FITC-LANA1-23 / chicken nucleosome fluorescence polarization; active compounds read low;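 active = both repeat wells score below -2 in polarization z-score versus plate sample wells, excluding overly bright wells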;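 also: 100 nL library stock added to about 30 µL; numbers are from one replicate; some results filed as inactive read as strong as hits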
#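 System – purified chicken nucleosomes with FITC-labelled LANA N-terminal peptide (1-23) · Amount – 240 nM purified chicken nucleosomes (480 nM peptide binding sites), final · Also added – 50 nM FITC-LANA1-23 probe · Medium – TEN-BT buffer, pH 7.5 · Incubation – compound with peptide–nucleosome mix 10–45 min at room temperature · Detection – fluorescence polarization, ex 480 nm, em 535 nm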
# BasE inh = inhibitors of Acinetobacter baumannii siderophore enzyme BasE; actives 0.1% (n = 84,000); AID 485350; purified BasE, fluorescence polarization binding displacement; inhibition, % (concentration not given with the values);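 active = both replicates above 25% with normal brightness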;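 also: 0% = negative plate control signal and 100% = positive plate control signal; stock transfer was 100 nL into about 30 µL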
# An asterisk follows results filed as active. An excerpt; the hit share may differ from the screen's.
SMILES,LANA-nucl inh,BasE inh
CC[C@H]1C(=O)OC[C@@H]1Cc1cncn1C,-0.66,-2.2
